T cruzi inh = blocks replication of Trypanosoma cruzi; 300,000 tested, 1.4% active; T. cruzi beta-gal in NIH3T3, luminescence, 90 h; inhibition, % (concentration not given with the values); AID 1885;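 active means mean inhibition across valid replicates above about 55%, limit read from the data; inconclusive means mean below that limit but half or more replicates reach it; inactive means mean below it, under half of replicates reach it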;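 further: signal also drops with host cell toxicity which is not excluded here; 0% = plate median of DMSO wells and 100% = zero luminescence signal; higher percent means less beta-gal luminescence so fewer parasites; stock transfer was 50 nL into about 50 µL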
FGF22 binding = FGF22 (human) thermal shift binding; Q9HCT0; recombinant FGF22 thermal shift, SYPRO orange fluorescence; percent of sucrose octasulfate shift, DMSO zero; calls only at 9.99 µM; 340,000 tested, 1.5% active; AID 651658;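 active means melting point raised past a set limit in the mean and every replicate; inconclusive means no clear call; three in four hits are not shown here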
Target sequence (Q9HCT0 whole entry, looked up): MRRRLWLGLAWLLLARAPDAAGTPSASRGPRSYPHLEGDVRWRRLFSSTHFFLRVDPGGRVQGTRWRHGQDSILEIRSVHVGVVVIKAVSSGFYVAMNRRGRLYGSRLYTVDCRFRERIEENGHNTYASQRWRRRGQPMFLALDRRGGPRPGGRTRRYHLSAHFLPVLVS
RanGTP-Imp inh = inhibitors of RanGTP-importin-beta interaction, primary screen, biochemical, FRET, CFP-Ran, YFP-importin-beta, homogeneous. cell-free CFP-Ran/YFP-importin-beta FRET ratio. inhibition, % (no concentration beside the values). 300,000 tested, 1.1% active. AID 2216;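 active means most replicates above 15%; inconclusive means exactly half above 15%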;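 further: 0% = DMSO wells and 100% = Ran loaded with GDP instead of GTP; wells of about 40 µL received 100 nL stock; the first replicate is given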
Ecoli rRNA inh = inhibits bacterial ribosomal RNA function over humanized ribosomes; E. coli WT GFP vs humanized-ribosome RFP mutants, fluorescence, 24 h; hits give low values; DMSO median 0, no signal -100; GFP signal change (wild-type ribosome), % (concentration not given with the values); 350,000 tested, 1.6% active; AID 720706;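 active means significant combined selectivity score with lowered wild-type GFP, culture density cut under 30%, mutant RFP and density less affected; inactive means any of these conditions unmet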; further: one replicate is shown; some compounds called inactive have numbers as strong as hits
AF4-AF9 inh = blocks AF4 peptide binding to human AF9. P42568. inhibition, % at 10 µM. AlphaScreen, biotin-AF4 peptide binding to FLAG-AF9. 350,000 tested, 0.47% active;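 active means every replicate reaching a set inhibition limit, whatever the replicate mean, cut at about 25% in these data; inconclusive means mean inhibition reaches that limit but some replicates miss it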;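 further: 0% = plate neutral control median and 100% = total signal loss; the record names both 10 and 1 µM as test concentration; the first replicate is given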
Target sequence (P42568 whole entry, looked up): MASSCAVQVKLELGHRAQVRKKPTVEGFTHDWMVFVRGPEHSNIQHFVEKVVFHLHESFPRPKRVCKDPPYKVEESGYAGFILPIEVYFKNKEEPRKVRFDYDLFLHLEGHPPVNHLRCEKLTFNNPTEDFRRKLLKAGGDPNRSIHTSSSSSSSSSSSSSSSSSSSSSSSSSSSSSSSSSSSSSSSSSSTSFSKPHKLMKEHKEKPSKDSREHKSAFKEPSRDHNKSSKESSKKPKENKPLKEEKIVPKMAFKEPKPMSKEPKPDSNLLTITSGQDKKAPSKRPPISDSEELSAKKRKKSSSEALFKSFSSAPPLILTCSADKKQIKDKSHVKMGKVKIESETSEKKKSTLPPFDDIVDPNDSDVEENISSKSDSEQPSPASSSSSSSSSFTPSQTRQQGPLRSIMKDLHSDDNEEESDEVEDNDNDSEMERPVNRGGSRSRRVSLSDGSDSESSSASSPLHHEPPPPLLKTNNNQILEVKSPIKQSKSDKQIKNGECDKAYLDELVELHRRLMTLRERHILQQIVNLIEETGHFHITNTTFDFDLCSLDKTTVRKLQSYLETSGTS
ALR inh = inhibitors of human sulfhydryl oxidase ALR; inhibition, % (concentration not given with the values); purified ALR, DTT oxidation, H2O2 HRP-luminol luminescence; AID 485317; 290,000 tested, 3.8% active;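 active means mean and each replicate at 75% or more; inconclusive means only one of the two met; inactive means neither met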;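 further: stock transfer was 7.5 nL into about 7.5 µL; 0% = neutral wells and 100% = wells with inactivated enzyme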
Target sequence (P55789 whole entry, looked up): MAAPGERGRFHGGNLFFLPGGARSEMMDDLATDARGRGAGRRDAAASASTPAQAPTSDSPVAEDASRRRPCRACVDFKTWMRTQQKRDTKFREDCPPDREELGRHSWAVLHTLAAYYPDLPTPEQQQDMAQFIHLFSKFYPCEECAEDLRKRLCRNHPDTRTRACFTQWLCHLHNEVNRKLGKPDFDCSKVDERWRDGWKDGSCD
Beta apoptosis = blocks beta cell apoptosis | protection from apoptosis, % (concentration not given with the values) | INS-1E cytokine-induced death, ATP luminescence, 48 h; percent of positive-control rescue, neutral wells zero | AID 435005 | 300,000 tested, 0.8% active;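 active means all replicates at 75% or more, or half of them and the mean; inconclusive means half reach 75% but not the mean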;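 further: 0% = cytokine-treated negative control wells and 100% = positive control rescue; higher means more ATP so stronger rescue from cytokine killing; wells of about 40 µL received 100 nL stock; the first replicate is given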
Calb FLC = affects C. albicans growth with fluconazole; 300,000 tested, 0.57% active; AID 1979; growth inhibition, % (concentration not given with the values); C. albicans CaCi-2 (fluconazole-resistant clinical isolate) + fluconazole, Alamar Blue growth, 48 h;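 active means most replicates above 75%; inconclusive means exactly half above 75%; inactive means most below 75%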;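 further: all wells also contain fluconazole at 8 µg/ml as a sub-toxic cotreatment; 0% = median of DMSO wells and 100% = median of geldanamycin control wells; wells of about 8 µL received 7.5 nL stock; the first replicate is given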
Ecoli rRNA inh OD600 = recorded beside Ecoli rRNA inh, whose call it bears; OD600 change, %; measured here: OD600 growth;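 optical density of the mix in the first replicate; 0 = DMSO median and -100 = no signal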
Ecoli rRNA inh RFP = recorded beside Ecoli rRNA inh, whose call it bears; RFP signal change, %; measured here: RFP humanized mutant strains;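 first replicate; 0 = DMSO median and -100 = no signal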
Numbers without * were called inactive; i = inactive; ? = inconclusive; . = not tested or not shown.

SMILES | T cruzi inh | FGF22 binding | RanGTP-Imp inh | Ecoli rRNA inh | Ecoli rRNA inh OD600 | Ecoli rRNA inh RFP | AF4-AF9 inh | ALR inh | Beta apoptosis | Calb FLC
CCOc1ccc(C2NC(=O)Cc3cc(OC)c(OC)cc32)cc1 (stereo not drawn) | -3 | i | 2.3 | 6 | 2 | -0.2 | -0.3 | 4 | 2 | -2
O=C(Cn1nnc2ccccc21)c1ccc(Br)cc1 | -16 | i | 0.8 | 0 | -6 | -4.5 | -0.5 | -3 | -2 | -3
CN(CC(=O)Nc1ccc(Cl)c(C(F)(F)F)c1)C(=O)CCC(=O)c1ccccc1 | . | i | . | . | . | . | -4.7 | -4 | -2 | .
COc1ccc(OC)c(N2CC(O)(c3cccs3)[N+]3=C2SCCC3)c1 (stereo not drawn) | -33 | i | 1.0 | 10 | 9 | 0.4 | -0.2 | -8 | 3 | -22
CCNc1ccc(Br)cc(C(=O)/C=C/c2ccc(Cl)cc2)c1=O | -5 | . | -18 | . | . | . | . | 4 | 7 | -1
CCOc1cc(CNCc2cccnc2)cc(Br)c1OCC(N)=O | -12 | i | 3.2 | 16 | 8 | 6.7 | -6.2 | -2 | 3 | 42
CCCn1cc(S(=O)(=O)c2ccc(Cl)cc2)c(=O)c2cc(OC)ccc21 | 11 | i | 1.6 | -28* | -18* | 4.5* | 0.4 | -3 | 2 | -5
COc1ccccc1/C=C/C(=O)NC1CC2CCC1C2 (stereo not drawn) | 0 | i | -2.2 | -17 | -18 | -5.0 | -8.5 | 41 | . | 10
N=C(N)SCc1ccccn1 | -36 | . | 4.5 | . | . | . | . | -13 | -6 | 21
Cc1ccc(S(=O)(=O)c2c(COC(=O)c3ccc(Cl)cc3)c(-c3ccccc3)nn2C)cc1 | 21 | . | -3.4 | . | . | . | . | -1 | 0 | -17
CCn1nc(C)c(/C=N/NC(=O)Cn2nnc(N)n2)c1C | -11 | i | -1.7 | 12 | 13 | 0.0 | -4.7 | -14 | . | -4
COc1ccc(S(=O)(=O)N(C)CC(=O)NCC2CCCO2)cc1OC (stereo not drawn) | -3 | i | -0.5 | 9 | 5 | 2.6 | -8.3 | -9 | -2 | -17
C=CCNCCOc1ccc(C(C)(C)c2ccccc2)cc1 | 27 | i | 2.7 | -2 | -21 | 4.2 | 6.4 | -5 | 3 | -28
NC(=O)c1ccc(Nc2ccc3c(c2)CCC3)c([N+](=O)[O-])c1 | -25 | i | 3.1 | 6 | 11 | -0.4 | -4.2 | . | 4 | -1
COc1cc(CCC(=O)N2CCN(S(=O)(=O)c3ccc(C)c(C)c3)CC2)cc(OC)c1OC | . | i | . | . | . | . | -7.4 | -10 | -6 | .
CCc1ccc(OCCOCC(O)CNC(C)(C)C)cc1 (stereo not drawn) | 23 | i | -1.5 | . | . | . | 3.5 | . | -4 | -1
CCOC(=O)C(=O)NNc1ccccc1OC | 2 | i | -2.1 | 6 | -3 | -1.6 | 6.9 | 99* | 4 | -21
Cc1nc2ccccc2c(=O)n1NC(=O)c1ccccc1Br | -2 | i | -0.6 | 7 | 9 | -3.9 | 1.9 | 1 | -7 | -8
CC1CCCCN1C(=O)c1ccccc1NC(=O)c1ccco1 (stereo not drawn) | 0 | . | -2.3 | . | . | . | . | -4 | -5 | 1
Cc1ccc(CSCCNC(=O)CN(c2cccc([N+](=O)[O-])c2)S(C)(=O)=O)cc1 | 2 | i | -4.6 | -4 | -13 | -0.5 | 7.4 | -18 | -2 | 2
O=Cc1ccnc(-c2ccc(OC(=O)c3ccco3)cc2)n1 | -5 | i | 4.5 | 13 | -4 | -2.4 | -1.9 | 66 | . | 8
O=C(COC(=O)CCCc1nc2ccccc2s1)NC(=O)NCc1ccco1 | -18 | . | 1.1 | -19* | -1.0* | 3.4* | 5.4 | 7 | -4 | 1
Cc1ccc(NC(=S)NCc2ccc(Cl)cc2)c(OC(F)F)c1 | 11 | i | 0.2 | -67 | -82 | -19 | 0.0 | -10 | -3 | 3
CN(CCc1ccccn1)C(=O)CCC1CCCN(C(=O)c2ccc3c(c2)OCCO3)C1 (stereo not drawn) | 5 | i | 3.0 | 14 | 7 | 1.9 | 0.2 | -7 | -3 | -5
CCC(=O)C1CCCN(C(=O)CCc2nnc(-c3ccc4c(c3)OCO4)o2)C1 (stereo not drawn) | -2 | i | 4.6 | -1 | -1 | -0.1 | -0.9 | 4 | -1 | -4

Continued:
SMILES | T cruzi inh | FGF22 binding | RanGTP-Imp inh | Ecoli rRNA inh | Ecoli rRNA inh OD600 | Ecoli rRNA inh RFP | AF4-AF9 inh | ALR inh | Beta apoptosis | Calb FLC
O=S(=O)(NCCSCc1c(Cl)cccc1Cl)c1ccc2c(c1)OCCO2 | -5 | . | 0.2 | -25 | -46 | -7.9 | . | -8 | 1 | -7
N/C(=N\OC(=O)C12CC3CC(CC(C3)C1)C2)c1ccccc1 | 17 | . | 0.8 | . | . | . | . | -7 | -3 | -2
CC1(C(=O)O)Oc2cccnc2NC1=O (stereo not drawn) | -4 | i | -1.1 | 12 | 11 | -4.4 | 0.5 | -3 | 2 | -4
COc1cc(C2=NOC(C(=O)NCc3cccs3)C2)cc(OC)c1OC (stereo not drawn) | 4 | . | -4.3 | . | . | . | . | -5 | 13 | 1
CN1CCN(CC(O)COc2ccc(C(=O)O)cc2)CC1 (stereo not drawn) | 2 | i | 6.2 | 12 | 14 | -1.9 | -1.4 | -9 | -2 | -6
CN(Cc1cccs1)C(=O)Cc1c[nH]c2ccccc12 | 13 | . | 8.9 | . | . | . | . | . | -8 | 5
CC(=O)[C@@H]1[C@@H](C)N(Cc2ccccc2)C(=O)N[C@H]1c1cccc(C(F)(F)F)c1 | 1 | i | 20* | 0 | -6 | 0.0 | -1.8 | 7 | 4 | -9
Cc1cccc(NC(=S)N(CCN(C)C)Cc2cc3cc(C)ccc3[nH]c2=O)c1 | -6 | i | 0.0 | -9 | -3 | 3.5 | 9.8 | 11 | -7 | -15
C/C=C(\C)c1nnc(NC(=O)c2ccco2)s1 | -10 | . | 2.7 | . | . | . | . | . | -4 | -12
O=C(COc1coc(CN2CCN(c3ccccc3F)CC2)cc1=O)NC1CCCC1 | -5 | i | -2.8 | 16 | 22 | 2.9 | -14 | -1 | . | -1
CCCn1c(SCC(=O)c2cc(C)n(C3CC3)c2C)n[nH]c1=O | . | i | . | -5 | -8 | 0.8 | 1.8 | . | -6 | .
CN(CC(=O)Nc1ccc2c(c1)CCC2)CC(=O)Nc1ccccc1Br | 4 | i | 1.5 | -54 | -76 | -16 | -1.0 | -6 | 0 | -10
C/C(N)=C(/C#N)C(=O)COC(=O)[C@@H](NC(=O)c1ccccc1Cl)C(C)C | -3 | i | 3.3 | 3 | -4 | -2.6 | -1.9 | 1 | -8 | -6
Cc1ccc(-c2cc(NC(=O)CSc3n[nH]c(N)n3)n(-c3ccccc3)n2)cc1 | -10 | . | 2.4 | . | . | . | . | . | -8 | 3
COc1cc(/C=C2\SC(=S)N(Nc3ccccc3)C2=O)ccc1O | -9 | . | -6.4 | . | . | . | . | ? | 11 | 0
Cc1ccc(S(=O)(=O)Nc2ccc(S(=O)(=O)Nc3ncccn3)cc2)cc1 | -11 | . | -1.2 | . | . | . | . | -13 | -5 | 7
Cc1cc(C)nc(Nc2cccc(Cl)c2)n1 | 0 | i | 8.2 | -16 | -15 | -3.9 | 5.4 | 1 | -8 | -2
Cc1cc(C)n2ncc(C(=O)NCCc3ccccc3)c2n1 | -3 | . | -2.7 | . | . | . | . | -3 | 1 | -1
CS(=O)(=O)c1ccc(C(=O)Nc2cc(-c3ccccc3)nn2-c2ccccc2)cc1 | . | i | . | 3 | 4 | -2.7 | -1.1 | 22 | -3 | .
Fc1ccccc1/C=C1\CCCC2=C1NC(=S)NC2c1ccccc1F (stereo not drawn) | 34 | i | ? | -32 | -32 | -0.4 | 9.3 | 8 | 2 | -1
CCC(CC)C(=O)Nc1nnc(S(=O)(=O)N(CC)c2ccc(OC)cc2)s1 | -4 | i | 1.0 | 2 | 7 | -0.4 | -19 | 1 | 1 | -4
COc1cc(C2NC(=O)NC(c3ccccc3)=C2C(C)=O)c(Cl)cc1OCC(=O)O (stereo not drawn) | -1 | i | -2.5 | 12 | 12 | 3.7 | -2.4 | -2 | -8 | -7
Fc1cccc(/C=N/Nc2ccccn2)c1 | 17 | i | 4.4 | -5 | 2 | -1.9 | 4.5 | 49 | 11 | -2
O=C(NCCCn1ccnc1)c1ccc(Cl)s1 | -2 | i | 1.9 | 8 | 7 | -1.3 | -4.4 | -5 | 0 | 4
O=C(N1CCOCC1)N1CCN(C(=O)N(c2ccccc2)c2ccccc2)CC1 | -1 | . | -0.7 | . | . | . | . | -5 | -11 | 6
CCOc1ccc(C(=O)NCCC(=O)N2CCC3(CC2)NCCc2[nH]cnc23)cc1 | -2 | i | 4.1 | 2 | 2 | -2.9 | -2.2 | -3 | -2 | 1

Some of the entries so far, as tab-separated lines:
SMILES	T cruzi inh	FGF22 binding	RanGTP-Imp inh	Ecoli rRNA inh	Ecoli rRNA inh OD600	Ecoli rRNA inh RFP	AF4-AF9 inh	ALR inh	Beta apoptosis	Calb FLC
Cc1ccc(S(=O)(=O)Nc2ccc(S(=O)(=O)Nc3ncccn3)cc2)cc1	-11	.	-1.2	.	.	.	.	-13	-5	7
Cc1cc(C)nc(Nc2cccc(Cl)c2)n1	0	i	8.2	-16	-15	-3.9	5.4	1	-8	-2
Cc1cc(C)n2ncc(C(=O)NCCc3ccccc3)c2n1	-3	.	-2.7	.	.	.	.	-3	1	-1
CS(=O)(=O)c1ccc(C(=O)Nc2cc(-c3ccccc3)nn2-c2ccccc2)cc1	.	i	.	3	4	-2.7	-1.1	22	-3	.
Fc1ccccc1/C=C1\CCCC2=C1NC(=S)NC2c1ccccc1F (stereo not drawn)	34	i	?	-32	-32	-0.4	9.3	8	2	-1
CCC(CC)C(=O)Nc1nnc(S(=O)(=O)N(CC)c2ccc(OC)cc2)s1	-4	i	1.0	2	7	-0.4	-19	1	1	-4
COc1cc(C2NC(=O)NC(c3ccccc3)=C2C(C)=O)c(Cl)cc1OCC(=O)O (stereo not drawn)	-1	i	-2.5	12	12	3.7	-2.4	-2	-8	-7
Fc1cccc(/C=N/Nc2ccccn2)c1	17	i	4.4	-5	2	-1.9	4.5	49	11	-2
O=C(NCCCn1ccnc1)c1ccc(Cl)s1	-2	i	1.9	8	7	-1.3	-4.4	-5	0	4
O=C(N1CCOCC1)N1CCN(C(=O)N(c2ccccc2)c2ccccc2)CC1	-1	.	-0.7	.	.	.	.	-5	-11	6
CCOc1ccc(C(=O)NCCC(=O)N2CCC3(CC2)NCCc2[nH]cnc23)cc1	-2	i	4.1	2	2	-2.9	-2.2	-3	-2	1

Bioassay records as filed in PubChem.

An excerpt, so the mix of outcomes need not match the whole.
